High-throughput results from PubChem BioAssay.
SARS PLpro yeast: blocks SARS-CoV papain-like protease in a yeast assay. S. cerevisiae expressing SARS-CoV PLpro, growth rescue; control for the full effect not named in the record. Potency, µM (top dose mostly 32.9 µM), for the others: at the top dose activity, positive = growth rescue. 0.19% of 330,000 active. AID 485353; active means well fitted rising curve with a large enough effect; inconclusive means small, poorly fitted or top-dose-only effect; inactive means no such curve, though single readings can be large or run the other way; also: 0% is about no effect; nearly all actives have a fitted effect of over 55% in size; growth read by luminescence after 48 h
RE007 growth inh: less growth of the S. pombe RE007 Vpr strain; Potency, µM (highest dose often 92.2 µM), for the others: top-dose activity change, negative = less growth; S. pombe RE007 Vpr strain, BacTiter-Glo ATP luminescence, 24 h; control for the full effect not named in the record; 0.21% of 360,000 active; active = well fitted falling curve with a large enough effect; inconclusive = small, poorly fitted or top-dose-only effect; inactive = no such curve, though single readings can be large or run the other way;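 also: % is scaled to controls: 0 for no effect and ±100 for the full control effect; nearly all actives have a fitted effect of over 50% in size; the assay follows cell death caused by Vpr and the record does not say whether a fall means rescue or toxicity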
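Fission yeast RE007 carrying one integrated HIV-1 vpr copy, seeded at OD 0.01 in PMG+AL medium with 23 nL pinned compound. Grown 24 h at 30 degrees; viability read by BacTiter-Glo luminescence after 5 min.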
NS1 inh: influenza NS1 inhibition. S. cerevisiae slowed by influenza A NS1, growth recovery by OD600. Potency, µM (doses to about 46.1 µM), inactives show at the highest dose activity, positive = more growth. 0.4% of 270,000 active. AID 2326; active means well fitted rising curve with a large enough effect; inconclusive means small, poorly fitted or top-dose-only effect; inactive means no such curve, though single readings can be large or run the other way; also: nearly all actives have a fitted effect of over 50% in size
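Compounds were scored for reversing the slow growth caused by influenza A NS1 in S. cerevisiae, measured by optical density at 600 nm. Assay medium contained 2% galactose at pH 6.0; NS1-free yeast of the same strain were the positive control.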
Marburg entry inh: blocks Marburg virus binding to or entry into cells. Marburg virus pseudotyped entry inhibition, cell reporter; control for the full effect not named in the record; about a third of the inactives were read at about 46 µM. Potency, µM (series often up to 37.8 µM), for inactives: at the top dose activity change, negative = inhibition, actives largely listed as inhibitors. 1.8% of 300,000 active; active = well fitted inhibition curve with a large enough effect; inconclusive = small, poorly fitted or top-dose-only effect, or effect the other way; inactive = flat fitted curve, though single readings scatter; tested in HEK293 cells; about a fifth of its hits are not listed in these tables; also: % is scaled to controls: 0 for no effect and ±100 for the full control effect; luciferase read-out
Cruzain Triton: inhibitors of Trypanosoma cruzi cruzain with detergent | P25779 | purified cruzain, Z-FR-AMC fluorescence, 0.01% Triton | Potency, µM, inactives show max response, negative = inhibition, actives largely listed as inhibitors | 0.43% of 200,000 active | AID 1478;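 also: plate controls were neutral wells for no effect and buffer without enzyme for full effect; nearly all actives have a fitted effect of over 40% in size; top concentration of the series not given in the record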
Target sequence (P25779 123-467 limits assumed): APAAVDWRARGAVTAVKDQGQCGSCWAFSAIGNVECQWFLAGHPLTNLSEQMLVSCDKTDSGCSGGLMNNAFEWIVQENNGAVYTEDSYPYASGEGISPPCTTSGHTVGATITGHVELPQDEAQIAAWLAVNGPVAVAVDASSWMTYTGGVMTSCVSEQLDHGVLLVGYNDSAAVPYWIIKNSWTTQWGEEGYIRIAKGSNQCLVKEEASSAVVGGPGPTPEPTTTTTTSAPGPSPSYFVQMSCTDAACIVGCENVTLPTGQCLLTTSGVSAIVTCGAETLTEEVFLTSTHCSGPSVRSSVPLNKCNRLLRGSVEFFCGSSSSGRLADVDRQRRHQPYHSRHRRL
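Cysteine protease activity tested under reducing, mildly acidic conditions (100 mM sodium acetate pH 5.5, 5 mM DTT) plus 0.01% Triton X-100. Cruzain 1.5 nM; substrate Z-FR-AMC 2 uM; 15 min compound preincubation at room temperature.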
StopGo reporter: FMDV 2A StopGo reporter, luciferase signal | human cells with a luciferase reporter of 2A StopGo recoding; control for the full effect not named in the record | Potency, µM (top dose mostly 57.9 µM), for the others: at the highest dose signal change, negative = less light | 1.2% of 410,000 active | AID 1159524; active = well fitted falling curve with a large enough effect; inconclusive = small, poorly fitted or top-dose-only effect; inactive = no such curve, though single readings can be large or run the other way; tested in HEK293T cells; also: % is scaled to controls: 0 for no effect and ±100 for the full control effect; nearly all actives have a fitted effect of over 45% in size; luciferase light after 4 h
LASV entry inh: inhibitors of Lassa virus binding or cell entry | Lassa virus pseudotype entry inhibition, cell reporter; control for the full effect not named in the record | Potency, µM (series often up to 37.9 µM), for inactives: at the highest dose activity change, negative = inhibition, most hits filed as inhibitors | 1.2% of 300,000 active | AID 540256; active means well fitted inhibition curve with a large enough effect; inconclusive means small, poorly fitted or top-dose-only effect, or effect the other way; inactive means flat fitted curve, though single readings scatter; tested in HEK293 cells; also: % is scaled to controls: 0 for no effect and ±100 for the full control effect; nearly all actives have a fitted effect of over 50% in size; luciferase read-out
Cruzain inh noDet: blocks cruzain activity in detergent-free assay. purified cruzain, Z-FR-AMC fluorescence, no detergent. AID 1476. P25779. Potency, µM, for inactives: max response, negative = inhibition, hits mostly inhibitors. 2.3% of 200,000 active;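 also: plate controls were enzyme without inhibitor for no effect and buffer without enzyme for full effect; nearly all actives have a fitted effect of over 40% in size; top concentration of the series not given in the record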
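Purified cruzain at 1.5 nM, pre-incubated 15 min with compound at room temperature in 100 mM sodium acetate pH 5.5, 5 mM DTT, 0.00005% Triton X-100. Reaction started with 2 uM Z-FR-AMC; AMC fluorescence increase over 60 s gives rate.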
Numbers without * were called inactive; u = inconclusive; x = no result given; & = joins results of further samples; [ ] = dose if it differs, or a comment. Unless noted, calls follow the shape of the dose curve; as a rule, active = well fitted curve in the direction sought with a large enough effect; inconclusive = small, poorly fitted or top-dose-only effect, or another doubt; inactive = no such curve, though single readings can be large; an effect the other way counts as inactive or inconclusive. Potency is read from the fitted curve at half-maximal effect.

SMILES	SARS PLpro yeast	RE007 growth inh	NS1 inh	Marburg entry inh	Cruzain Triton	StopGo reporter	LASV entry inh	Cruzain inh noDet
N#C/C(=C\c1ccc(Cl)cc1)C(=O)NCC1CCCO1 (stereo not given)	x	x	x	x	-1.5%	-2.0%	-12.3%[46.1 µM]	5.3%
COc1cccc(CNC(=O)C(NS(=O)(=O)c2ccc3c(c2)CCN3C(C)=O)C(C)C)c1 (stereo not given)	1.2%	2.9%	-2.8%	u	-3.5%	9.3%&-2.0%	4.4%&3.8%[46.1 µM]	-4.7%
CCCC[n+]1ccn(C2=C([O-])c3ccccc3C(=O)/C2=N\S(=O)(=O)c2ccccc2)c1	-0.4%	-1.9%	7.3%	u	0.9%	22.4µM*	u	-7.8%
CC(C)(C)NC(=O)C(c1ccncc1)N(Cc1cccs1)C(=O)c1csnn1 (stereo not given)	0.0%	2.5%	1.2%	-11.4%[46.1 µM]	x	29.4%	9.1%	x
C[C@H](NC(=O)c1ccco1)C(=O)N1CCCC1	1.2%	-1.9%	-3.6%	0.6%[46.1 µM]	x	20.0%	11.0%[46.1 µM]	x
Cc1ccc(OCC(=O)N/N=C\c2cccs2)c([N+](=O)[O-])c1	7.9%	2.1%	-1.5%	6.5%	-10.0%	31.9%[activator]	14.7%	-1.6%
O=C(N/N=C/C=C/c1cccc([N+](=O)[O-])c1)c1ccncc1	0.6%	6.5%	-1.3%	3.5%	x	4.3%	6.0%	x
O=C(CSc1ncn(-c2ccccc2)n1)N1CCN(c2ccccc2)CC1	-13.4%	-0.1%	-6.5%	-14.0%[46.1 µM]	-4.3%	-11.4%	10.0%	3.7%
Clc1ccc(N2CCN(c3nc4nonc4nc3N3CCSCC3)CC2)nc1	-0.1%	8.7%	5.2%	2.7%[46.1 µM]	x	-16.4%	13.5%	x
Cc1onc(-c2ccccc2Cl)c1C(=O)N1CCOC12CCCCC2	-0.7%	-9.3%	-1.1%	u	x	5.2%	u	x
CC(C)CC(/C(O)=C(\C#N)c1nc2ccccc2[nH]1)N1C(=O)c2ccccc2C1=O (stereo not given)	-4.6%	-10.8%	u	-10.5%	-12.7%	-30.9%	-16.3%	-18.2%
O=C(Nc1nc2ccc(C(=O)N3CCCCC3)cc2s1)C1CCCCC1	-0.1%	9.2%	4.1%	4.1%[46.1 µM]	x	0.0%	-18.3%	x
CC(=O)c1cccc(NC(=O)c2ccc3nc(C(C)C)oc3c2)c1	x	x	x	x	-4.3%	-10.9%	16.5%[46.1 µM]	-3.0%
Cc1ccnn1CCC(=O)N1CCCC(CCC(=O)NCc2ccccc2F)C1 (stereo not given)	0.5%	-16.8%	1.4%	5.7%[46.1 µM]	x	29.4%	u	x
COc1ccc(N)cc1S(=O)(=O)Nc1ccccc1Cl	0.5%	-6.9%	4.3%	1.9%[46.1 µM]	x	32.5%[activator]	-1.4%	x
COc1cccc(NC(=O)C(=O)NCCC2CCCCN2S(=O)(=O)c2ccccc2)c1 (stereo not given)	x	5.2%	x	-25.1%	x	49.4%[activator]	u	x
O=C(CSc1cccc2cccnc12)Nc1cccc(S(=O)(=O)N2CCOCC2)c1	-1.7%	6.3%	x	22.5%[46.1 µM]	x	23.4%	14.6%	x
Cc1ccc(C(=O)N[C@@H](C)CN2C3=NC[C@@H](Cc4ccccc4)N3C[C@H]2Cc2ccc(O)cc2)cc1Br	-0.2%	9.3%	3.5%	x	x	u	x	x
Cc1ccc(NC(=O)C2CCCN2C(=O)NC2CCCCC2)cc1C (stereo not given)	0.8%	6.5%	-0.3%	x	x	-1.0%	x	x
Cc1csc(Sc2ccc(C(=O)OCC(=O)Nc3ccc(OC(F)(F)F)cc3)cc2[N+](=O)[O-])n1	-10.8%	-22.7%	9.3%	-13.9%	-7.2%	-9.4%	-0.7%	-0.4%
NC(=O)CSc1nc2c(sc3ccccc32)c(=O)n1CCCN1CCOCC1	4.7%	-23.5%	-2.0%	-1.4%	-8.4%	23.9%	8.9%	-8.5%
Cc1ccc(NC(=O)COC(=O)Cc2ccc(Br)cc2)cc1S(=O)(=O)N1CCOCC1	23.5%	-3.8%	x	-3.3%[46.1 µM]	x	-4.1%	-10.6%[46.1 µM]	x
CCCCCCCCSc1nnc(CSc2nc3nc(C)cc(C)n3n2)o1	-6.8%	-22.5%	-3.8%	u	-10.2%	-26.9%	-21.2%	u
Cc1noc(NS(=O)(=O)c2ccc(NC(=O)c3ccc(Br)o3)cc2)c1C	-1.9%	0.1%	-18.6%	2.2%	-9.7%	7.6%	15.6%	10.9%
COc1ccc(C2C3=C(CCCC3=O)Nc3nc(C(F)(F)F)nn32)cc1OC (stereo not given)	0.6%	-14.9%	-5.1%	-1.4%	-4.0%	-10.3%	16.9%	-6.5%
CCOC(=O)CNC(c1ccccc1)c1cc(Br)ccc1NC(C)=O (stereo not given)	0.1%	-14.1%	-2.2%	u	x	6.5%	10.4%	x
Nc1c(Cl)cc(-c2csc(N3CCCC3c3nc4cc(Cl)c(Cl)cc4n3CCOCCO)n2)cc1Cl (stereo not given)	-9.3%	0.5%	13.5%	x	x	2.5%	x	x
Cc1ccc(CSc2nc3[nH]ncc3c(=O)[nH]2)cc1	1.1%	11.8%	x	u	x	0.0%	4.0%	x
COc1cccc(C(=O)Nc2c(C(=O)c3ccc(F)cc3)oc3ccccc23)c1	x	x	x	6.1%[46.1 µM]	0.5%	-8.1%	-4.7%[46.1 µM]	1.7%
Cc1c(NC(=O)CN2CCN(c3cccc(Cl)c3)CC2)c(=O)n(-c2ccccc2)n1C	0.2%	0.5%	x	u	x	u	-10.0%[46.1 µM]	x

6 entries drawn at random from those above:
SMILES	SARS PLpro yeast	RE007 growth inh	NS1 inh	Marburg entry inh	Cruzain Triton	StopGo reporter	LASV entry inh	Cruzain inh noDet
COc1cccc(C(=O)Nc2c(C(=O)c3ccc(F)cc3)oc3ccccc23)c1	x	x	x	6.1%[46.1 µM]	0.5%	-8.1%	-4.7%[46.1 µM]	1.7%
Cc1c(NC(=O)CN2CCN(c3cccc(Cl)c3)CC2)c(=O)n(-c2ccccc2)n1C	0.2%	0.5%	x	u	x	u	-10.0%[46.1 µM]	x
COc1ccc(C2C3=C(CCCC3=O)Nc3nc(C(F)(F)F)nn32)cc1OC (stereo not given)	0.6%	-14.9%	-5.1%	-1.4%	-4.0%	-10.3%	16.9%	-6.5%
Cc1ccc(NC(=O)COC(=O)Cc2ccc(Br)cc2)cc1S(=O)(=O)N1CCOCC1	23.5%	-3.8%	x	-3.3%[46.1 µM]	x	-4.1%	-10.6%[46.1 µM]	x
NC(=O)CSc1nc2c(sc3ccccc32)c(=O)n1CCCN1CCOCC1	4.7%	-23.5%	-2.0%	-1.4%	-8.4%	23.9%	8.9%	-8.5%
Cc1ccc(CSc2nc3[nH]ncc3c(=O)[nH]2)cc1	1.1%	11.8%	x	u	x	0.0%	4.0%	x

Later entries:
SMILES	SARS PLpro yeast	RE007 growth inh	NS1 inh	Marburg entry inh	Cruzain Triton	StopGo reporter	LASV entry inh	Cruzain inh noDet
CC(C)Cc1nc(N2CCOCC2)c(C#N)c2c1CCC2	-6.3%	6.7%	-8.6%	-26.9%&-26.9%	-2.9%	-26.8%	-27.8%	1.5%
CC(Sc1n[nH]c(=O)n1Cc1ccccc1)C(=O)NC1CCCCC1C (stereo not given)	-3.8%	7.6%	x	-28.7%	x	0.0%	-3.6%	x
CCCCNC(=O)CC(C(=O)N1CCc2ccccc21)n1ccnc1 (stereo not given)	-14.1%	-12.0%	6.9%	11.6%	8.6%	17.0%	-8.2%	7.5%
COc1ccc(NCc2cc3ccc(OC)cc3n(CC(=O)Nc3cc(Cl)ccc3C)c2=O)cc1	x	x	x	x	-4.1%	-2.9%	-21.1%[46.1 µM]	u
O=C(NC1CCCC1)c1cc(-c2cccs2)on1	-5.1%	3.8%	-17.3%	u	-4.4%	22.0%	u	-6.1%
COC(=O)c1c(C)[nH]c(C)c1-c1ccc(C)cc1	-40.3%	u	-74.5%	1.9%	-2.4%	-3.3%	1.4%	7.7%
CCOC(=O)N1CCN(C(=O)CSC2=NS(=O)(=O)c3ccccc3N2)CC1	-7.5%	0.6%	x	0.1%	x	0.9%	u	x
Cc1ccc(Cl)cc1N1CCN(C(=O)c2cn(C)c3ccc(S(=O)(=O)N4CCC(C)CC4)cc3c2=O)CC1	x	x	x	-2.2%[46.1 µM]	-0.8%	-16.0%	27.0%[46.1 µM]	2.6%
O=c1[nH]c(Cc2ccccc2)nc2scc(-c3ccccc3)c12	-4.0%	19.5%	-7.4%	-1.4%[46.1 µM]	-3.9%	2.5%	-9.7%	-5.6%
Cc1cc(C)n(-c2ccc(C(=O)OCC(=O)Nc3ccc([N+](=O)[O-])cc3)cc2)n1	-8.7%	x	3.4%	4.1%	-9.8%	-5.8%	1.1%	4.9%
COc1ccc(/C=C/C(=O)c2c(C)cc(C)[nH]c2=O)c2ccccc12	-10.0%	-7.9%	21.1%	u	x	-25.0%	u	x
CCOC(=O)CC1C(=O)NCCN1C(=O)COc1ccc(Br)cc1C (stereo not given)	-0.1%	7.0%	-2.2%	-14.4%	-0.8%	-10.6%	-24.5%	-4.9%
Cc1cc(=O)oc2c3c(cc(OCC(=O)N[C@@H](C)C(=O)O)c12)OC(C)(C)CC3	-0.7%	-0.7%	5.6%	x	x	-17.8%	x	x
NC(=S)NCCCC(N)C(=O)O (stereo not given)	x	x	-10.1%	u	10.3%	x	x	7.0%
CN1CCc2c(sc3c2C(=O)NC(c2ccc(OC(=O)c4ccc(C(C)(C)C)cc4)cc2)N3)C1 (stereo not given)	x	x	x	x	-9.5%	-2.5%	-11.3%[46.1 µM]	-7.0%
COc1ccc(/C=C/C2=NNC(=O)CC2)cc1	0.2%	-8.3%	x	u	x	32.2%[activator]	0.9%	x
Fc1cccc2sc(N3CCCCC3)nc12	-0.4%	-27.0%	-22.4%	x	6.4%	52.5%[activator]	x	0.4%
O=C(c1cc2ccccc2o1)N1CCN=C1SCc1cccc(F)c1	7.2%	10.6%	6.6%	x	-4.8%	0.9%	x	3.0%
